Source: PubChem BioAssay
AID504770: E. coli YBA685 growth inhibition, screen for V. cholerae RctB inhibitors. z-score (no concentration beside the values). AID 504770. 130,000 tested, 0.27% active. E. coli YBA685 rctB-dependent plasmid, OD600 growth, 3 h; active compounds read low;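 active = z-score under -2 on both plates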;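 also: wells of about 30 µL received 100 nL stock; score is relative to mean and SD of the test wells; the first replicate is given; strong numbers were not always called active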
CapD inh: inhibitors of Bacillus anthracis CapD enzyme; 140,000 tested, 0.23% active; AID 492967; z-score (concentration not given with the values); purified CapD enzyme, fluorescence intensity read-out; active compounds read low; some hits fall short of the stated cut;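 active = z-score under -4 in either of two replicates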;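 also: stock transfer was 100 nL into about 40 µL; score is relative to mean and spread of the plate; one replicate is shown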
Numbers without * were called inactive; i = inactive; nt = not tested or not shown; & = joins results of further samples.

SMILES | AID504770 | CapD inh
CC1(C)CC(=O)C(C=Nc2ccc(S(=O)(=O)Nc3nccs3)cc2)=C(O)C1 | -2.6 | nt
O=C(c1cccc(NS(=O)(=O)c2ccc(F)c3ccccc23)c1)N1CCOCC1 | 0.15 | nt
CCOc1ccc(C2C(N3C(=O)c4ccc([N+](=O)[O-])cc4C3=O)C(=O)N2c2ccc(Br)c(C)c2)cc1 (stereo not given) | nt | -0.725
O=C(Cn1c(=O)sc2ccccc21)Nc1ccc(O)cc1 | -1.05 | nt
CN(Cc1ccccc1)C(=O)COc1ncnc2ccccc12 | 1.1 | 0.555
CCc1c(C(=O)OC)nn(-c2ccc(OC)cc2)c(=O)c1C#N | 0.6 | -0.935
COC(=O)C1=CN(c2ccc(F)cc2)C=C(C(=O)OC)C1c1cccs1 | -0.25 | 67.4
COc1ccc(CCNC(=O)CCCc2cn(C)c3ccccc23)cc1OC | -0.65 | 0.39
CC(C)(C)c1cnnn1-c1ccc(NC(=O)COc2ccccc2)cc1 | -0.75 | 0.46
CCN1CCN(S(=O)(=O)c2cccs2)CC1 | 1.1 | 0.595
COc1ccc(OC)c(C(O)CNC(=O)CN)c1 (stereo not given) | 0.8 | -0.985&0.275
CCCc1cc(-c2nc(-c3ccc(Br)cc3)cs2)ccn1 | 0.05 | 75.7
O=C1/C(=C/c2cccs2)SC(=S)N1/N=C/c1cccs1 | 0.85 | -0.325
O=c1oc2ccccc2cc1-c1cn2ccccc2n1 | -0.3 | 0.98
Cc1ccc(S(=O)(=O)NCCN=Cc2ccc(N(C)C)cc2)cc1 | -0.05 | -1.25
O=C(Nc1nc(-c2cccs2)cs1)C1CC(=O)N(C2CCCC2)C1 (stereo not given) | -0.3 | nt
Cc1cc(-n2c(C)cc(CNC(C)C(O)c3ccc(O)cc3)c2C)no1 (stereo not given) | -0.4 | nt
O=C(Nc1ccc2ccccc2n1)c1cccs1 | 2.2 | 0.67
CCN(Cc1ccccc1)S(=O)(=O)c1ccc(F)c(C(=O)Nc2ccccc2Cl)c1 | nt | -0.245
COC(=O)C1=C(C)OC(N)=C(C#N)C1c1ccccc1I (stereo not given) | nt | -0.55
CN(C)c1ccc(C(=S)N2CCN(c3cccc(Cl)c3)CC2)cc1 | -0.4 | nt
C=CCN(C#N)c1nc(N(C)C)nc(N(C)C)n1 | -0.25 | -0.08
O=C(Nc1ccc(Br)cc1F)C1CCCN(S(=O)(=O)N2CCC3(CC2)OCCO3)C1 (stereo not given) | 1.2 | -0.005
CC(=O)Nc1nc2c(s1)C(=O)NCC(C)(C)C2 | nt | 0.02
CC(C)CC(N)c1ccccc1 (stereo not given) | -0.6 | nt

Structures listed so far that contain a thiophene ring, fused or not:
SMILES | AID504770 | CapD inh
COC(=O)C1=CN(c2ccc(F)cc2)C=C(C(=O)OC)C1c1cccs1 | -0.25 | 67.4
CCN1CCN(S(=O)(=O)c2cccs2)CC1 | 1.1 | 0.595
O=C1/C(=C/c2cccs2)SC(=S)N1/N=C/c1cccs1 | 0.85 | -0.325
O=C(Nc1nc(-c2cccs2)cs1)C1CC(=O)N(C2CCCC2)C1 (stereo not given) | -0.3 | nt
O=C(Nc1ccc2ccccc2n1)c1cccs1 | 2.2 | 0.67

In the list so far, these have four or more nitrogen atoms:
SMILES | AID504770 | CapD inh
CC(C)(C)c1cnnn1-c1ccc(NC(=O)COc2ccccc2)cc1 | -0.75 | 0.46
C=CCN(C#N)c1nc(N(C)C)nc(N(C)C)n1 | -0.25 | -0.08

Continued:
SMILES | AID504770 | CapD inh
CN(C)C(=O)CSc1cnc2ccccc2n1 | 3.15 | -0.02
Cc1ccc(Cl)cc1NC(=O)CSc1nc2c(oc3ccccc32)c(=O)n1C1CCCC1 | -0.3 | nt
O=C1NC(=NCc2ccccc2)S/C1=C\c1ccc(Cl)cc1 | -0.9 | 9.86
Cc1cccc(CCOC(=O)NC(C)C(=O)OCc2ccc([N+](=O)[O-])cc2)c1 (stereo not given) | nt | 0.035
O=C(N/N=C/c1cccnc1)C1=NNC(=O)C1CCO (stereo not given) | 1.6 | -0.175
CN1C(C(=O)Nc2ccc(F)cc2F)=CC(c2ccc(F)cc2)=NS1(=O)=O | -0.3 | -0.575
CCC1CCCCN1C(=O)c1c[nH]c2ccc(S(=O)(=O)N(C)c3ccc(Br)cc3)cc2c1=O (stereo not given) | nt | 0.905
O=C1c2ccccc2NC2(CCCCC2)N1N=C1CCCCC1 | 1.75 | 7.75
N#CC1=C(SCC(=O)Nc2cccc(Cl)c2)NC2=C(C(=O)CCC2)C1c1cccs1 (stereo not given) | nt | 6.14
COC(=O)/C=C/c1cn(-c2ccccc2)nc1-c1ccc(F)cc1 | -0.35 | 0.13
COCCOC(=O)C1=C(N)OC(C)=C(C(C)=O)C12C(=O)Nc1ccc(Br)cc12 (stereo not given) | nt | -0.31
CN(CC(COc1ccccc1)OC(=O)c1ccc(Cl)cc1)C1=NS(=O)(=O)c2ccccc21 (stereo not given) | -0.05 | 0.35
O=C(NCc1ccc2c(c1)OCO2)c1ccc2c(c1)ncn2C1CCCC1 | -0.1 | 0.3
Cc1ccc(NNC(=S)NC2CCCCC2)cc1 | 0.2 | nt
O=C(O/N=C/c1ccc(F)c(Cl)c1)C1CC1 | 1.05 | -0.07
CC1CN(C(=O)c2cc3cc(Br)ccc3oc2=O)CC(C)O1 (stereo not given) | -0.75 | -0.56
CC(C)C(=O)NCCc1nc(-c2ccccc2Cl)no1 | -1.25 | nt
FC(F)(F)c1cccc(-n2cc(-c3ccccc3)c3c(N4CCC5(CC4)OCCO5)ncnc32)c1 | nt | 0.63
O=C(Nc1ccc(O)c(-c2nc3ccccc3s2)c1)c1cc2cc([N+](=O)[O-])ccc2s1 | nt | -0.4
Cc1ccc(Nc2nc(Nc3ccc(C)cc3)nc(N3CCCCC3)n2)cc1 | -0.55 | -1.06
Cc1nc(Cl)c(Cc2ccccc2)c(N2CCCC2)n1 | 0.75 | nt
COc1cccc(NC(=O)CC2CCCCC2)c1 | 0.15 | -0.21
CCN(CC)S(=O)(=O)c1ccc2[nH]c(=O)cc(C(=O)Nc3ccccc3N3CCN(C)CC3)c2c1 | -1.05 | nt
COc1ccc(N2CCN(CCNC(=O)c3nnc(Cc4c(F)cccc4Cl)o3)CC2)cc1 | 0 | -0.675
CCCc1nn2c(=O)cc(COc3ccc(C)cc3)nc2s1 | -1.3 | 0.715

Part of the list above in another layout:
canonical_smiles	AID504770	CapD inh
Cc1cc(-n2c(C)cc(CNC(C)C(O)c3ccc(O)cc3)c2C)no1 (stereo not given)	-0.4	nt
CCc1c(C(=O)OC)nn(-c2ccc(OC)cc2)c(=O)c1C#N	0.6	-0.935

Next section
SMILES | AID504770 | CapD inh
NC(=O)C1(N2CCCCC2)CCN(C(=O)c2ccc(-n3c(=S)[nH]c4ccccc4c3=O)cc2)CC1 | nt | -0.38
Cc1c[n+]([O-])n(-c2ccc(C(=O)O)cc2)n1 | -0.5 | 0.02
C/C(N)=C(/C#N)C(=O)CSc1ncccn1 | -0.35 | nt
O=C1C=CC(=O)N1c1ccc(N2CCOCC2)cc1 | -0.3 | nt
O=C(c1ccc(COc2cccc3ccccc23)cc1)N1CCCCC1 | 0.25 | 45.4
Cc1ccc(S(=O)(=O)c2ccc(NC(=O)C(Cl)Cl)cc2)cc1 | nt | 0.075
CC1CCCCC1NC(=O)Cn1cnc2ccccc2c1=O (stereo not given) | -0.2 | nt
COc1ccccc1N=C(N)Nc1cccc(C(F)(F)F)c1 | 1.15 | nt
N=C1C(c2nc3ccccc3s2)=C(O)CN1c1ccccc1 | 0.9 | 68.1
CSc1nc2nc(C)c(CC(=O)N3CCN(Cc4ccc5c(c4)OCO5)CC3)c(C)n2n1 | -0.2 | nt
COc1ccccc1NC(=O)/C=N/O | nt | 0.155
CCC(=O)c1c(C)c(C)c(C)c(C)c1C | nt | 0.925
Cc1ccc(S(=O)(=O)CCSc2nc(C)cc(C)c2C#N)cc1 | -0.55 | nt
Cc1ccc(OCC(=O)NC(C)C(=O)O)cc1 (stereo not given) | -1.3 | i
NCCCCC(N)C(=O)NC(Cc1c[nH]c2ccccc12)C(=O)NC(CCCCN)C(=O)O (stereo not given) | nt | 78.1
COc1ccc(CNC(=O)c2csc(Cc3ccc(Cl)cc3)n2)cc1 | nt | -0.25
CCOC(=O)N1CCN(c2c(-c3ccccc3)c3cc(Cl)ccc3[nH]c2=O)CC1 | 0.3 | 0.885
CCOC(=O)c1c(CN2CCC(C(=O)OCC)(c3ccccc3)CC2)n(-c2ccccc2)c2ccc(O)cc12 | nt | 0.915
Clc1ccc(C2C3=C(Nc4ncnn42)c2ccccc2CCC3)cc1 (stereo not given) | nt | 0.4
CCCN1CCN(CCCNC(=O)c2cc3c(s2)-c2ccccc2S(=O)(=O)C3)CC1 | -0.45 | 73.2
O=C(O)c1cccc(OCc2cn3ccccc3n2)c1 | -0.8 | nt
Cc1nnc(SCC2=C(C(=O)O)N3C(=O)[C@@H](NC(=O)Cn4cnnn4)[C@H]3SC2)s1 | -1.8 | 1.58&-0.015
Cc1cccc(CCOC(=O)N2CCC(N3CCCCC3)CC2)c1 | nt | 0.21
C/C(=N\NC(N)=S)c1ccc(Br)cc1 | nt | -1.65
O=C(c1cccc(C(F)(F)F)c1)c1c[nH]c(C(=O)NCc2ccc(F)cc2)c1 | nt | -0.255
Next structures
SMILES | AID504770 | CapD inh
COc1cccc(C2Nc3cccc4cccc(c34)N2)c1OC | nt | 21.5
CC(=O)OC1CCCC2=CCC3C(CCC4(C)C3C[C@@H](C)[C@]4(C)C(C)=O)C21C (stereo not given in full) | nt | 6.42
O=C(Nc1c2c(nn1-c1ccccc1)CS(=O)C2)c1cccs1 (stereo not given) | 1.7 | -0.975
OC12CCCCC1C(c1ccccc1)NCC2 (stereo not given) | nt | -0.735
COc1ccc(OC(=O)C=C(C)C)cc1 | -0.85 | -0.595
O=C(Nc1sc2c(c1C(=O)Nc1ccc(Cl)cc1)CCCCC2)c1ccccc1Cl | nt | 0.055
CC1CCN(CC(O)COc2ccccc2Br)CC1 (stereo not given) | -1 | -0.165
Cn1c(=O)c2c(ncn2CC(=O)Nc2ccc(F)c([N+](=O)[O-])c2)n(C)c1=O | nt | -1.27
Cc1nc(-c2ccccn2)nc(SCC(=O)c2ccccc2)c1Cl | -0.1 | -1.29
O=c1oc2ccccc2cc1-c1cn2c(n1)sc1ccccc12 | 0 | -0.045
CC(C)CCNC(=O)c1cn(-c2ccccc2)nc1-c1cccs1 | 0.05 | 0.62
CC1=C(C(=O)OCCOc2ccccc2)C(c2cccs2)C2=C(CC(c3cccs3)CC2=O)N1 (stereo not given) | nt | 8.93
CCN(CC)C(=S)Oc1c(Cl)cccc1Cl | -0.1 | -0.71
O=C1CC(NC(=O)N2CCCc3ccccc32)CN1c1ccccc1 (stereo not given) | -0.55 | nt
CCN(CC)CCN(C)C1C2CC3CC(C2)CC1C3 (stereo not given) | -0.95 | 0.005
Cn1c(=O)c(C(=O)Nn2c(Cc3ccccc3)nc3ccccc3c2=O)c(O)c2ccccc21 | nt | -0.535
CC1CCCCN1CC(=O)Nc1cc(C(C)(C)C)nn1-c1ccccc1 (stereo not given) | -0.75 | nt
CC(=O)OCC1OC(Oc2ccc(C(=O)Cc3cscn3)c(O)c2)C(OC(C)=O)C(OC(C)=O)C1OC(C)=O (stereo not given) | nt | -0.295
NC(=O)Cc1cc(=O)oc2cc(O)ccc12 | -0.75 | 89.1
O=C(O)c1nc(-c2ccccc2)n(-c2cccc(C(F)(F)F)c2)n1 | 0.1 | 0.79
N#CC1=C2CCCCC2C(c2ccco2)C(C#N)(C#N)C1=O (stereo not given) | 0.1 | 0.29
CC(=O)c1ccc(NC(=O)CSc2nc3ccc([N+](=O)[O-])cc3[nH]2)cc1 | nt | -0.23
CCOC(=O)c1ccccc1NC(=O)CSc1nc2n[nH]c(C)c2c(=N)n1-c1ccccc1Cl | nt | 0.185
CC1CCCCN1S(=O)(=O)Cc1ccccc1 (stereo not given) | 0.4 | 0.5
CSCCC1NC(=O)NC1=O (stereo not given) | -0.8 | -0.825
Continuation.
SMILES | AID504770 | CapD inh
CC(O)(C#Cc1ccccc1)c1ccc(N2CCCCC2)c(F)c1 (stereo not given) | -0.45 | -0.11
O=C1c2ccccc2NC(c2ccc(Br)cc2)N1c1ccc(Cl)cc1 (stereo not given) | nt | 11.8
CSCCNC(C)=O | 0.95 | -0.08
Cc1cc(Br)ccc1NC(=O)CN1CCCCC1 | -1.05 | -0.625
Cc1ccc2cnn(CC(=O)NCCCN3CCCC3=O)c2c1 | 1.2 | -0.705
CC(=O)OCCSc1nc(N(C)C)nc(N(C)C)n1 | -0.55 | 0.16
O=C(O)c1cnn(-c2ccccc2)c1C(F)(F)F | nt | 0.18
Cc1cc(C)c(OCCCNC(C)(C)C)c(Cl)c1 | 0.7 | nt
CCCCOc1ccc(C2C(N3C(=O)c4ccc([N+](=O)[O-])cc4C3=O)C(=O)N2c2ccc(Cl)cc2)cc1 (stereo not given) | nt | -0.54
O=C(Nc1cc2c3c(c1)C1CCCC1CN3CC1CCCC21)c1ccc(Cl)cc1 (stereo not given) | nt | 0.5
COc1ccc(CCn2c(=S)[nH]c3nccnc3c2=O)cc1OC | -1.3 | -0.9
O=C(C1CCCCC1)N1CCN(c2ncccn2)CC1 | 0.55 | 1.98
CN(Cc1ccccc1)C(=O)CSc1c2c(nc3ccccc13)CCC2 | 0.25 | 0.13

Six structures out of the list, sorted by count of non-hydrogen atoms, ascending:
SMILES | AID504770 | CapD inh
O=C(O)c1cnn(-c2ccccc2)c1C(F)(F)F | nt | 0.18
CC(=O)OCCSc1nc(N(C)C)nc(N(C)C)n1 | -0.55 | 0.16
O=C(C1CCCCC1)N1CCN(c2ncccn2)CC1 | 0.55 | 1.98
Cc1ccc2cnn(CC(=O)NCCCN3CCCC3=O)c2c1 | 1.2 | -0.705
COc1ccc(CCn2c(=S)[nH]c3nccnc3c2=O)cc1OC | -1.3 | -0.9
CN(Cc1ccccc1)C(=O)CSc1c2c(nc3ccccc13)CCC2 | 0.25 | 0.13
